Compound activity from PubChem.
ClpP mod – qHTS Assay for Activators of ClpP; ATP-dependent Clp protease proteolytic subunit (Bacillus subtilis (strain 168)), P80244; purified B. subtilis ClpP, FRET peptide cleavage, 20 min; Potency, µM (top dose mostly 57.5 µM), inactives show top-dose activity change, negative = active; 340,000 compounds, 1.9% hits; AID 651965, 2013; active = well fitted falling curve with a large enough effect; inconclusive = small, poorly fitted or top-dose-only effect; inactive = no such curve, though single readings can be large or run the other way; also: the source files actives as falling curves though it sought activators and does not explain the sign; nearly all actives have a fitted effect of over 65% in size; many hits overshoot -100%
Target sequence (P80244 whole entry, looked up): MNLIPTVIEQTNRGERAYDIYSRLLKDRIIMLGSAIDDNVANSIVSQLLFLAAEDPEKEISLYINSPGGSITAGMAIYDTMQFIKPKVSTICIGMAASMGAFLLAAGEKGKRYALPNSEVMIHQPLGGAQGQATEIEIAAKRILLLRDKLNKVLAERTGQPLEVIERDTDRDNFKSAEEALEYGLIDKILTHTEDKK
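ClpP 10 microg/mL final, pH 8 Tris/KCl buffer with BSA, glycerol, Tween-20; compound pinned in; FRET-FV substrate; RT 20 min; Ex320/Em430; ΔFRET vs ADEP 5.8 microM, DMSO, no enzyme.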
Starred values were filed as active, the others as inactive; ? = inconclusive. Potency is read from the fitted curve at half-maximal effect. An excerpt, so the mix of outcomes need not match the whole.

The opening 2 entries, to show the layout:
Structure | ClpP mod
O=C(Nc1cccc(F)c1)C1CCN(c2nc3ccccc3nc2C(F)(F)F)CC1 | 0.1%
COc1cccc2cc(-c3csc(-c4ccc(Cl)cc4)n3)c(=O)oc12 | -8.7%

The listing (from the top)
Structure | ClpP mod
O=C(Nc1cccc(F)c1)C1CCN(c2nc3ccccc3nc2C(F)(F)F)CC1 | 0.1%
COc1cccc2cc(-c3csc(-c4ccc(Cl)cc4)n3)c(=O)oc12 | -8.7%
Cc1ccc(Cl)cc1N1CCN(c2nc3ccc(C(=O)c4ccccc4)cc3n3cnnc23)CC1 | -9.9%
O=S(=O)(c1ccc(Br)cc1)c1nc(-c2ccco2)oc1SCc1ccccc1F | -8.1%
Cc1ccc(-c2nc(CS(=O)(=O)CC(=O)Nc3ccc(Br)cc3F)c(C)o2)cc1 | -1.2%
C=C1NN(Cc2ccccc2)C(=O)N1c1ccc(OCc2ccccc2)cc1 | -0.3%
S=C(NCCCc1cnc[nH]1)NCCCN(Cc1ccc(Cl)cc1)c1ccc(-c2ccccc2)cn1 | ?
O=C(c1ccc2c(=O)n(Cc3ccco3)c(=S)[nH]c2c1)N1CCN(Cc2ccc3c(c2)OCO3)CC1 | 0.2%
CCc1cccc(C)c1NC(=O)Cn1c(=O)cc(C)c2c(C)nn(-c3cccc(F)c3)c21 | -6.4%
Cc1cccc(NC(=O)/C(C#N)=C/c2ccco2)c1 | 4.0%
CCc1ccc(NC(=O)C(=O)NCC(c2cccnc2)N2CCc3ccccc3C2)cc1 (stereo unspecified) | -1.7%
Cc1ccc(NC(=O)CN(C)S(=O)(=O)c2ccc3[nH]c4c(c3c2)CCCC4)c(Cl)c1 | -29%
COc1ccccc1NC(=O)CN1C(=O)CC(c2ccc(C)c(C)c2)=Nc2ccccc21 | -4.7%
COc1ccccc1N1CCN(C(=O)c2nc(SC)ncc2Cl)CC1 | -1.3%
Oc1c(C(c2ccccc2F)N2CCOCC2)sc2nc(-c3ccco3)nn12 (stereo unspecified) | 3.1%
COc1cc(C2CC(=O)c3c([nH]c(C(=O)OC4CCCCC4)c3C)C2)cc(OC)c1OC (stereo unspecified) | 0.7%
Fc1ccc(CSc2nc(NCc3ccccc3)c3ccccc3n2)cc1 | 0.5%
CCCCN(C)C(=O)C1CCC(CNS(=O)(=O)c2ccc(Cl)cc2)CC1 (stereo unspecified) | 1.3%
COc1ccc(-n2c(C)nc3cc(C(=O)NC4CCCCCC4)ccc32)cc1 | -0.6%
COc1ccc(-c2nc3c(C#N)c[nH]n3c2NC2CCCC2)cc1 | 1.5%
CCN(CC)CCN(CC)c1ccc(/C=C/c2ccnc3ccccc23)cc1 | 0.3%
COc1ccc(NC(=O)C2CCCN(S(=O)(=O)c3cn(C)cn3)C2)cc1Cl (stereo unspecified) | -1.9%
CCc1ccccc1NC(=O)N1CCN(C(=O)c2nsc3ccccc23)CC1 | -0.8%
Cc1oc(-c2cccc(Cl)c2)nc1CN1CCC(C(=O)NCc2ccc(F)cc2)CC1 | -0.4%
CSC1=NC2(CCN(C(=O)NC3CCCCC3)CC2)N=C1c1ccc(C(C)(C)C)cc1 | 1.6%
COc1ccc(OC)c(NC(=O)c2cc3c(=O)oc4ccccc4c3s2)c1 | -0.1%
Cc1ccc2nc(SCC(=O)Nc3ccc(C#N)cc3)[nH]c2c1 | 5.5%
Cc1ccc(Nc2c(-c3c[nH]c4ccccc34)nc3cc(C)ccn23)cc1 | 28µM*
CCN(CC)C(=O)c1sc2c(c1C)c(=O)n(-c1ccc(C)c(C)c1)c(=O)n2Cc1cccc(Cl)c1 | 2.3%
CCOc1ccc(C(=O)Nc2ccc3nc(SCC(=O)N4CCc5ccccc54)sc3c2)cc1 | ?
O=C(NCCc1ccccc1)c1cnn(-c2ccc(F)cc2)c1-n1cccc1 | -1.4%
COc1ccccc1N1CCN(C(=O)c2cc3c(=O)n(C)c4ccccc4c3s2)CC1 | 4.0%
CCN(c1ncnc2c1cnn2-c1ccc(C)cc1)C1CCCCC1 | -3.1%
COc1ccc(-c2noc(CN(C(=O)c3ccc(C)cc3C)C(C)C)n2)cc1 | -1.1%
CCn1c(=O)c2sccc2n2c(CCCC(=O)N3CCN(c4cc(Cl)ccc4C)CC3)nnc12 | -0.5%
CCOc1ccc(Nc2c(S(=O)(=O)c3ccc(C)cc3)cnc3cc(OC)c(OC)cc23)cc1 | -1.7%
Cc1ccc(Cl)cc1N1CCN(S(=O)(=O)c2ccc3[nH]c4c(c3c2)CCCC4)CC1 | ?
Cc1ccc(-n2nc3ccc(NC(=O)c4oc5ccc(C)cc5c4C)cc3n2)cc1 | ?
COc1ccccc1NC(=O)c1ccccc1NC(=O)c1ccccc1 | 0.4%
Cc1ccc(-c2cc(C(F)(F)F)n3ncc(-c4ccc(Cl)cc4)c3n2)cc1 | 1.9%

A different layout for part of the listing above:
CCn1c(=O)c2sccc2n2c(CCCC(=O)N3CCN(c4cc(Cl)ccc4C)CC3)nnc12
  ClpP mod: -0.5%
CCOc1ccc(Nc2c(S(=O)(=O)c3ccc(C)cc3)cnc3cc(OC)c(OC)cc23)cc1
  ClpP mod: -1.7%
Cc1ccc(Cl)cc1N1CCN(S(=O)(=O)c2ccc3[nH]c4c(c3c2)CCCC4)CC1
  ClpP mod: ?
Cc1ccc(-n2nc3ccc(NC(=O)c4oc5ccc(C)cc5c4C)cc3n2)cc1
  ClpP mod: ?

Carrying on:
Structure | ClpP mod
Cc1ccc(OCCSc2nc3ccc(NC(=O)c4cccs4)cc3s2)cc1 | -5.2%
CCOC(=O)c1c(C)oc2nc(C)nc(NCc3ccccc3OCC)c12 | 1.6%
CCc1c(C)nc2nncn2c1Nc1cccc(C)c1 | -18%
CCOC(=O)c1ccc(N2CCN(c3cccc(OC)c3)CC2)c(NC(=O)Nc2ccc(OCC)cc2)c1 | 0.3%
CC(=O)c1cccc(NC(=O)Cn2cc(C(=O)c3cccc(Cl)c3)c(=O)c3ccc(C)nc32)c1 | 2.4%
CCOc1ccc(N2C(=O)N(Cc3c(F)cccc3Cl)c3ccccc3S2(=O)=O)cc1 | -0.2%
COCCn1ccc2c(OCC(=O)Nc3ccccc3F)cccc2c1=O | 2.6%
Cc1ccsc1CN1CCc2nc(Nc3ccccc3)ncc2C1 | -3.3%
Cc1ccc2nc(COc3cccc(NC(=O)c4ccccc4Cl)c3)cc(=O)n2c1 | ?
Cc1ccc2c(c1)N(CCC(=O)NCc1ccc(F)cc1)C(=O)CO2 | 0.8%
Cc1cc2nn(-c3ccccc3)nc2cc1NC(=O)COc1ccc(Cl)cc1 | -11%
Cc1ccccc1CN1C(=O)C(O)(CC(=O)c2cccc(Br)c2)c2ccccc21 (stereo unspecified) | -1.4%
COc1ccc(C(=O)NCc2ccc3c(c2)CCN3C(=O)c2ccncc2)cc1 | ?
COc1ccc(-n2c(=O)c3sc4ccccc4c3n(CC(=O)Nc3cccc(C)c3)c2=O)cc1 | -21%
Cn1cc(C(=O)NCc2ccccc2Cl)c(=O)c2cc(S(=O)(=O)N3CCCCCC3)ccc21 | 0.0%
O=C(Cn1c(=O)n(Cc2ccco2)c(=O)c2ccccc21)Nc1ccc(Cl)cc1Cl | -0.6%
CCOc1cc2sc(N3CCC(C(=O)Nc4ccc(CC)cc4)CC3)nc2cc1Br | -1.3%
CCc1cnc2c(c1SCCC(C)C)c(=O)n(C)c(=O)n2C | -0.2%
CCOC(=O)c1cc(-c2ccc(C)cc2)nn1Cc1ccccc1 | -3.2%
Cc1ccccc1C(=O)Nc1ccc2nc(SCCOc3ccccc3)sc2c1 | 13%
O=C(CC1N=C2c3ccccc3N=C(SCc3ccccc3F)N2C1=O)NCc1ccc2c(c1)OCO2 (stereo unspecified) | -5.2%
Cc1c(C(=O)O)oc2c1-c1nn(Cc3ccc(Cl)cc3)cc1CC2 | 4.3%
Cc1nc2ccccc2c(=O)n1-c1ccc(NC(=O)C(F)(F)F)cc1 | -4.8%
C=C1C=C(C(F)(F)F)n2ncc(C(=O)NCc3ccc(F)cc3)c2N1 | -3.2%
Cc1ccc(Cn2c(CNS(=O)(=O)c3c(C)cc(C)cc3C)nc3cccnc32)cc1 | -2.5%
FC(F)(F)c1cccc(Nc2c3c(nc4ccc(Cl)cc24)CCC3)c1 | ?
CCOC(=O)c1c(NC(=O)CSc2cn(CCNC(=O)c3ccc(OC)c(OC)c3)c3ccccc23)sc2c1CCCC2 | -5.5%
O=C1CC(c2ccc(Br)cc2)c2c(ccc3ccccc23)N1 (stereo unspecified) | -16%
Cc1ccc(CNC(=O)CSCc2ccccc2C)cc1 | 0.2%
Cc1nc(N2CCCC2)ncc1C(=O)Nc1ccccc1 | ?
COc1cc(-c2c(-c3ccc4c(c3)OCO4)noc2-c2ccsc2)cc(OC)c1OC | -1.6%
CC1=C(c2ccc(C)c(C)c2)S(=O)(=O)N=C1N1CCN(c2cccc(C(F)(F)F)c2)CC1 | -0.5%
Cc1ccc(C)c(NC(=O)Cn2c(=O)n(CC3CCCO3)c(=O)c3ccccc32)c1 (stereo unspecified) | -21%
COc1ccc2oc(=O)cc(CN3CCN(C(=O)c4ccccc4F)CC3)c2c1 | -26%
CCOC(=O)c1c(C)[nH]c(CCC(=O)NCc2ccc(N(C)C)cc2)c1C | -6.7%
Cc1nn(CCCC(=O)Nc2cccc(C(F)(F)F)c2)c(=O)c2nn(-c3ccccc3)c(C)c12 | -1.8%
Cc1c(Cl)cccc1NC(=O)N1CCN(C(=O)c2nsc3ccccc23)CC1 | 0.3%
COc1ccccc1CNC(=O)CCn1nc(C)c2c(C)n(-c3ccccc3)nc2c1=O | -4.1%
C[n+]1c(/C=C/c2ccc(F)cc2)ccc2ccccc21 | -22%
Cc1ccc(NC(=O)CCCc2nnc3n(C)c(=O)c4sccc4n23)cc1F | -0.4%
CN(C)c1ccc(CNC(=O)C2CCCN(S(=O)(=O)c3ccc4c(c3)oc(=O)n4C)C2)cc1 (stereo unspecified) | -2.7%
CC(=O)Nc1ccc(S(=O)(=O)Nc2nc3n(n2)C(c2ccccc2)C=C(c2ccc(Cl)cc2)N3)cc1 (stereo unspecified) | 4.4%
CCCc1nn2c(=O)cc(COC(=O)c3ccc(NC(=O)COc4ccccc4)cc3)nc2s1 | 1.3%
Cc1cc(Br)ccc1NC(=O)CSc1c2c(nc3ccccc13)CCC2 | -2.5%
Cc1cccc(Cn2c(CN3CCC(C(=O)NCCc4ccccc4)CC3)cc3ccccc32)c1 | -5.6%
CN1C(=O)CC(C(=O)Nc2ccc(C(=O)O)cc2)SC1=Nc1ccc(Cl)cc1 (stereo unspecified) | -1.1%
Clc1cccc[n+]1CCCCCC[n+]1ccccc1Cl | -3.3%
Cc1cccc(CNC(=O)CCCN2C(=O)CCn3nc(-c4cccn4C)cc32)c1 | 1.0%
Cc1nn(C)c2c1c(-c1ccccc1)cc(=O)n2Cc1ccccc1Cl | 28µM*
Cc1ccc(-n2ncc(C(=O)N3CCc4ccccc4C3)c2C2CCN(C(=O)OC(C)(C)C)CC2)cc1C | -0.5%

Further records.
Structure | ClpP mod
CCOC(=O)c1ccccc1NC(=O)Nc1cc2c(cc1N1CCCC1)n(C)c(=O)n2C | -12%
O=C(CSc1nc2c([nH]c3ccccc32)c(=O)n1-c1ccc(F)cc1)NC1CCCCC1 | -7.3%
Cc1ccc(NC(=O)CSc2nccn2C2CCCC2)cc1Cl | -2.5%
CCN1CCN(CCCNC(=O)c2cnn(-c3ccc(C)cc3C)c2C2CCN(C(=O)OC(C)(C)C)CC2)CC1 | 3.1%
CC(=O)N1CCc2c(sc3nc(SCC(C)C)n(-c4ccc(F)c(Cl)c4)c(=O)c23)C1 | -0.4%
Cc1ccc2c(c1)C(c1ccccc1)N(C(=O)c1ccc(OC(C)C)cc1)CC(=O)N2 (stereo unspecified) | -0.7%
CCCCN(c1ccccc1)c1ncnc2c1cnn2-c1ccc(Cl)cc1 | ?
Cc1ccc(-n2c(Cc3ccccc3)nnc2SCc2nc(-c3cccs3)no2)cc1C | -1.4%
COc1ccc(CCNC(=O)CCn2c(=O)c3ccccc3n(Cc3ccccc3F)c2=O)cc1OC | -1.6%
Cc1ccc(CN(C(=O)COc2cc(C)c(Cl)c(C)c2)c2ccccn2)o1 | 2.0%
CCN(CC)S(=O)(=O)c1ccc2c(c1)c(=O)c(C(=O)NCc1ccccc1OC)cn2C | -3.8%
CCN(CC)c1cc2c(cc1F)c(=O)c(S(=O)(=O)c1cc(C)ccc1C)cn2Cc1ccccc1 | ?
COc1cccc(C(=O)N(Cc2cccc(F)c2)C2CCS(=O)(=O)C2)c1 (stereo unspecified) | -1.5%
CCCSc1ncc(Cl)c(C(=O)Nc2c(C(=O)Nc3ccccc3)oc3ccccc23)n1 | 3.3%
CN1CCN(CCC(=O)Nc2ccc(Cl)cc2)CC1 | -0.2%
Cc1nn(-c2nc(-c3ccccc3)cc(C(F)(F)F)n2)c(C)c1Cl | -2.4%
O=C1c2oc3ccccc3c(=O)c2C(c2ccccc2F)N1Cc1ccc2c(c1)OCO2 (stereo unspecified) | -0.2%
COc1ccc(NC(=O)C2Cc3ccccc3N2C(=O)c2ccccc2)cc1OC (stereo unspecified) | -1.1%
Cc1nn(-c2ccc(N3CCCCC3)nn2)c(C)c1CCC(=O)NCc1ccc(Cl)cc1 | -0.8%
Cc1cn2c(=O)cc(COc3ccc(Cl)cc3)nc2s1 | -1.9%
O=C1CN(C(=O)c2ccc(S(=O)(=O)N3CCCCC3)cc2)C(c2ccc(F)cc2)c2cc(Cl)ccc2N1 (stereo unspecified) | 0.6%
